Compound activity from PubChem.
HSD17B inh – qHTS Assay for Inhibitors of HSD17B4, hydroxysteroid (17-beta) dehydrogenase 4; 3-hydroxyacyl-CoA dehydrogenase type-2 (Homo sapiens), Q99714; recombinant HSD17B10, NADH fluorescence kinetic; many of its hits are not listed in these tables; Potency, µM (top dose mostly 57.1 µM), without a hit: at the top dose activity change, negative = inhibition, most hits filed as inhibitors; actives 7.6% (n = 75,000); active = well fitted inhibition curve with a large enough effect; inconclusive = small, poorly fitted or top-dose-only effect; inactive = no such curve, though single readings can be large or run the other way;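 note: the protocol describes HADH2 (HSD17B10) and not the HSD17B4 of the title; nearly all actives have a fitted effect of over 70% in size; most hits overshoot -100% by far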
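Enzyme plus compound, 15 min room temperature; substrate mix added (NAD+ 1 mM, beta-hydroxybutyryl-CoA 90 uM final); plates read kinetically for NADH fluorescence. HADH2 was His-tagged, E. coli-derived, 20 nM.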
Numbers without * were called inactive; ? = inconclusive; [ ] = remark or other dose. % is set by controls: 0 for no effect and ±100 for the full control effect; potency is the fitted concentration of half-maximal effect. A portion of the library; count on the stated rates, not on these rows.

A first look:
SMILES | HSD17B inh
COC(=O)c1cc(NC(=O)CC2C(=O)NCCN2C(=O)c2ccccc2)cc(C(=O)OC)c1 (stereo not drawn) | 4%
CCOC(=O)c1c(C)nc(-c2ccccc2)nc1NC(C)=O | 3%
Cc1ccc(S(=O)(=O)C(CCC(=O)N2CCOCC2)S(=O)(=O)c2ccc(C)cc2)cc1 | 1%
Nc1[nH]ncc1C(=O)Nc1cccc(C(F)(F)F)c1 | ?
Cc1ccc(NCN2C(=O)c3ccccc3C2=O)c(C)c1 | 3%

Main list, from the start:
SMILES | HSD17B inh
COC(=O)c1cc(NC(=O)CC2C(=O)NCCN2C(=O)c2ccccc2)cc(C(=O)OC)c1 (stereo not drawn) | 4%
CCOC(=O)c1c(C)nc(-c2ccccc2)nc1NC(C)=O | 3%
Cc1ccc(S(=O)(=O)C(CCC(=O)N2CCOCC2)S(=O)(=O)c2ccc(C)cc2)cc1 | 1%
Nc1[nH]ncc1C(=O)Nc1cccc(C(F)(F)F)c1 | ?
Cc1ccc(NCN2C(=O)c3ccccc3C2=O)c(C)c1 | 3%
O=c1[nH]c(NCc2ccccc2)nc2c1CCC2 | 4%
CC(=O)Nc1ccc(S(=O)(=O)NCc2cn3ccsc3n2)cc1 | 8%
O=C(c1ccco1)N1CCC[C@@]2(CCN(Cc3nccs3)C2)C1 | -1%
CCOC(=O)c1c(NC(=O)COc2ncnc3sccc23)sc2c1CCC2 | -26%
Cc1cc2nnc(SCC(=O)NCc3cccs3)n2c(N)n1 | 6%
CCn1c(SCC(=O)Nc2ccccc2N2CCOCC2)nnc1-c1ccccc1O | 9%
CCOc1cc(CN2CCN(C(=O)c3ccco3)CC2)ccc1OC | -1%
CCC(C)(C)n1nnnc1CN(Cc1ccco1)Cc1cc2cc3c(cc2[nH]c1=O)OCO3 | 26%
O=C1OC2CC3CC1CC(O)(C3)C2 (stereo not drawn) | 14%
CC(Oc1cc(C(F)(F)F)cc(C(F)(F)F)c1)C(=O)NC(N)=O (stereo not drawn) | 3%
CCN(CC)CCN=C1CCCc2ccccc2N1 | -11%
COc1cccc(-n2c(SCC#N)nnc2-c2cnccn2)c1 | -1%
NCCSS(=O)(=O)CCN | -13%[11.4 µM]
Cn1c(=O)oc2cc(S(=O)(=O)N3CCCC(C(=O)N4CCc5ccccc5C4)C3)ccc21 (stereo not drawn) | 6%
Nc1cc(N)nc(SCC(=O)N2CCCCC2)n1 | 2%
CCOc1ccccc1-n1cnc2cc(C(=O)NCc3ccco3)ccc21 | -14%
N#CCCN1CCN(C2=NC(=O)C(=C3CCCCC3)S2)CC1 | 3%
O=C(c1ccco1)N1CCC2(CC1)CCN(c1ccncc1)CC2 | 0%
COCCNc1ccnc(-c2c(C)noc2C)n1 | 16%
COc1ccccc1-c1nnc(NC(C)=O)s1 | 25µM*
O=C(Nc1nncs1)c1ccc(S(=O)(=O)c2ccccc2)cc1 | 4%
Cn1c(C(=O)N2CCc3ccccc32)cc2c(=O)n3ccccc3nc21 | ?
CCc1nnc(NC(=O)CN2C(=O)c3ccccc3C2=O)s1 | -5%
COC(=O)C/C=C\[C@@H](C)[C@@H](/C=N\O[C@@H](C)CN1CCCCc2nc(C)c(C)cc21)NS(=O)(=O)c1ccc(C)cc1 | -5%[11.4 µM]
CN(C)CCn1c(C(=O)O)cc2ccccc21 | -21%
O=C(Cc1cccs1)NCc1ccccc1F | 0%
CSc1nncc(-c2ccc(F)c(F)c2)n1 | -6%
Cc1ccc(-c2[nH]nc3c2C(c2ccoc2)C(C#N)=C(N)O3)cc1C (stereo not drawn) | -16%
C=C(NC(=O)C(=C)NC(=O)c1csc(C2=N[C@@H]3c4csc(n4)[C@@H]4NC(=O)c5csc(n5)[C@@H]([C@](C)(O)[C@H](C)O)NC(=O)[C@@H]5CSC(=N5)/C(=C/C)NC(=O)[C@@H]([C@H](C)O)NC(=O)c5csc(n5)[C@]3(CC2)NC(=O)[C@@H](C)NC(=O)C(=C)NC(=O)[C@@H](C)NC(=O)[C@@H]([C@@H](C)CC)N[C@H]2C=Cc3c([C@H](C)O)cc(nc3[C@@H]2O)C(=O)O[C@H]4C)n1)C(N)=O | 1%[25.6 µM]
Cn1c(=O)c2c(nc(N3CCc4ccccc4C3)n2Cc2ccc(Br)cc2)n(C)c1=O | 4%
c1cncc(-c2nnc(-c3cccs3)o2)c1 | 32µM*
CN(Cc1ccccc1)C(=O)CSc1nc2ccccc2c(=O)n1Cc1ccco1 | 6%
CCOC(=O)C1=C(C)NC(=O)NC1c1ccccc1Cl (stereo not drawn) | 4%
COc1ccccc1/C=C/CN1CCOCC1 | 3%
NC[C@H]1O[C@H](n2cnc3c(N)ncnc32)C[C@@H]1O | 2%[11.4 µM]
Cn1ncc(C#N)c1NC(=O)C1CC(c2c(F)cccc2Cl)=NO1 (stereo not drawn) | 5%
Cc1ccc2c(c1)N(CC(=O)NCC1COc3ccccc3O1)C(=O)CO2 (stereo not drawn) | 4%
CCCCC(=O)N=c1sc2cc(S(C)(=O)=O)ccc2n1C | -11%
CC1=C(C#N)c2nc(N)c(C#N)c(C)c2/C1=C\c1ccccc1 | 32µM*
c1cc2c(nn1)CCc1nonc1-2 | 8%
CC(C)Cn1c(N)c(C(=O)CSc2ccc3c(c2)OCCO3)c(=O)n(C)c1=O | -1%
Cn1c(=O)c(=O)n(C)c2cc(S(=O)(=O)N3CCOCC3)ccc21 | ?
CCOC(=O)c1c(C)n(C)c2c(C)cc(O)c(OC(C)=O)c12 | 0%
CCCCCCOc1ccc(/C(N)=N/O)cc1 | ?
NC(=O)c1ccccc1NC(=O)CS(=O)(=O)Cc1ccccc1 | 2%
O=C(Nc1nc(-c2cc(Cl)sc2Cl)cs1)c1cccs1 | ?
OCC1OC(n2cnc3c(Cl)nc(Cl)nc32)C(O)C1O (stereo not drawn) | 3%
O=C(NCCN1CCN(c2ccccc2)CC1)C1CCN(S(=O)(=O)N2CCOCC2)CC1 | 3%
Cc1ccc(CN(C)C(=O)C2CCCN2C(=O)c2cccs2)o1 (stereo not drawn) | -9%
O=C(c1cnsn1)N1CCN(c2ccccn2)CC1 | 7%
CC(=O)Nc1ccc(NC(=O)CN(C)CCC#N)cc1 | 6%
Cc1ccc(NC2=CC(=O)CC(C)(C)C2)c(N)c1 | 1%
CCc1c(C)[nH]n(-c2ccc(Oc3ccccc3)c(S(=O)(=O)O)c2)c1=O | ?
COCCn1c(=O)c(CCc2ccccc2)nc2cnc(OCc3ccccc3)nc21 | 10%
CC(C)=NOCc1ccc(-c2cc(-c3ccccc3)no2)cc1 | -1%[11.4 µM]
Further structures:
SMILES | HSD17B inh
O=C1[C@@H]2C(Cc3ccc(O)cc3)NC3(C(=O)Nc4ccc(F)cc43)[C@@H]2C(=O)N1c1ccc(F)cc1 (stereo partly drawn) | -1%
CO/N=C(\C(=O)NC1C(=O)N2C(C(=O)OCOC(=O)C(C)(C)C)=C(/C=C\c3scnc3C)CSC12)c1csc(N)n1 (stereo not drawn) | -4%
COc1ccc(NC(=O)C2CCN(S(=O)(=O)c3cccc4cccnc34)CC2)cc1 | ?
COC(=O)[C@H](CCSC)NC(=O)Nc1cc(C)ccc1C | -2%
COc1cc(NCCC(=O)O)c2ncccc2c1 | 2%[11.4 µM]
O=C(c1cccc(F)c1)N1CCN(c2cccc(C(F)(F)F)c2)CC1 | 3%
CC1=C(C(N)=O)C(c2ccncc2)n2nc(-c3ccccc3Cl)nc2N1 (stereo not drawn) | -17%
CCOc1ccccc1N(CC(=O)NCC1CCCO1)C(=O)CCC(=O)Nc1ccccn1 (stereo not drawn) | 8%
CCN(CC)c1ccc(NC(=O)c2ccc(Br)o2)c(C)c1 | -2%
COc1ccc(-c2noc(CSc3nnc(Cc4ccccc4)n3-c3cccc(C)c3)n2)cc1OC | -4%
Cc1ccccc1Nc1nc(N)nc(CN2C(=O)NC3(CCCCC3C)C2=O)n1 (stereo not drawn) | 1%
COc1ccc(Cn2nnnc2C(c2ccncc2)N2CCOCC2)cc1 (stereo not drawn) | -6%
C=CCn1c(SCC(=O)NCc2ccco2)nnc1-c1ccc2ccccc2n1 | 7%
CSC1=NC(NCCCO)c2c(sc3c2CC(C)(C)OC3)N1 (stereo not drawn) | ?
CCc1ccc(-c2ccc(C(=O)O)cc2)nc1 | 3%
COCC(C)NC(=O)c1cc(-c2ccc(OC)c(OC)c2)on1 (stereo not drawn) | -3%
CC(=O)N(Cc1ccc2c(c1)OCO2)C1CC(=O)N(CCc2ccccc2)C1=O (stereo not drawn) | -9%
FC(F)(F)c1ccccc1-c1cncnc1NCCc1cnc[nH]1 | -3%
Cc1cc(NS(=O)(=O)c2ccc(NC(=O)CN3C(=O)c4ccccc4C3=O)cc2)nc(C)n1 | -2%
CCOC(=O)c1ccc2[nH]c(C)c(CN3CCN(C)CC3)c(=O)c2c1 | -8%
CCC(C)(C)NC(=O)CN(C(=O)CCC(=O)Nc1cc(C)ccn1)c1ccc2c(c1)OCO2 | -1%
Cn1c(=O)c2c(SCc3ccccn3)nc(-c3ccccc3)nc2n(C)c1=O | 2%
CCCn1c(=O)c(C(=O)NCc2ccccn2)c(O)c2ccccc21 | -5%
CCOCCCNC(=O)CN1CCN(Cc2ccccc2C)C1=O | 5%

For reference, two of the compounds above.
SMILES | HSD17B inh
C=CCn1c(SCC(=O)NCc2ccco2)nnc1-c1ccc2ccccc2n1 | 7%
CSC1=NC(NCCCO)c2c(sc3c2CC(C)(C)OC3)N1 (stereo not drawn) | ?

Further entries.
SMILES | HSD17B inh
Cc1ccccc1-c1nccc(-n2ccnc2)n1 | ?
CC(C)(C)c1ccccc1OCC(=O)Nc1ncn[nH]1 | -5%
CCCCn1c(=O)cc(O)c2ccccc21 | -21%
Cc1ccc(C(=O)CSc2nc3cc(S(=O)(=O)N4CCOCC4)ccc3o2)cc1 | 0%
CSc1nc(NCC(C)C)nc(N2CCOCC2)n1 | -5%
COc1ccccc1N1C(=O)C2C3C=CC(C3)C2C1=O (stereo not drawn) | 5%
C/C(N)=C(/C#N)C(=O)COc1ncnc2ccc(Br)cc12 | 10%
COc1ccc(Nc2ncc3nc(-c4cccs4)c(=O)n(Cc4cccc(OC)c4)c3n2)cc1 | -3%
COc1ccc2[nH]c(=O)c(C(c3nnnn3CC3CCCO3)N3CCc4ccccc4C3)cc2c1 (stereo not drawn) | -1%
CC(C)C(NC(=O)C1CCCCC1)C(=O)NCc1ccccn1 (stereo not drawn) | 4%
N/N=C1/c2ccccc2N[C@H]1OC(=O)Nc1cccc(Cl)c1 | -3%[11.4 µM]
CCN1CCCC1CNC(=O)c1cc(NC(C)=O)c(N(C)C)cc1OC (stereo not drawn) | 5%
Cc1ccc(C)c(NC(=O)C2CCCN2C(=O)OC(C)(C)C)c1 (stereo not drawn) | 4%
CNc1ccccc1 | 6%
Cc1occc1-c1nnc(SCC(=O)NCc2ccc3c(c2)OCO3)n1CC(C)C | 3%
O=C(Cn1nc(-c2ccccc2)nc1-c1ccccc1)N1CCOCC1 | -4%
COc1cc2c(cc1C(F)(F)F)N(C(=O)Nc1cc(F)cc(-c3cccnc3)c1)CC2 | -24%
CN(C)S(=O)(=O)N(CCN1CCOCC1)Cc1ccccc1F | 4%
O=C(NC1CCN(Cc2ccccc2)CC1)c1ccccc1F | 13%
CN(C)CCCNS(=O)(=O)c1cc(Cl)ccc1Cl | 9%
O=C(NCCCN1CCCC1)C1CCN(C(=O)c2cc3sccc3n2Cc2ccc(F)cc2)CC1 | -2%
Cc1oc(-c2ccc(Cl)cc2)nc1CN1CCC(C(=O)NCCCN2CCCC2=O)CC1 | 1%
CC(C)C1CC(O)(C2(O)CCCCC2)ON1 (stereo not drawn) | 8%
COc1ccc(C2C(C(C)=O)=C(O)C(=O)N2CCO)c(OC)c1 (stereo not drawn) | -1%
COc1cc(CNC2CCCCCC2)cc(OC)c1OC | 3%
CN(C)c1ccc(-c2ccc3ncnc(NCc4ccccc4)c3c2)cc1 | -22%
NC(=O)C1CCN(C(=O)c2cc3ccccn3n2)CC1 | 3%
CCCC(=O)Nc1ccc(Cl)c(NC(=O)c2ccco2)c1 | 7%
COc1cccc(CN2CCN(c3ncccn3)CC2)c1 | -5%
COc1cc2c(cc1OC)CN(C(=O)CSc1nc3[nH]ncc3c(=O)n1-c1ccccc1)CC2 | 2%
CNC1=C(Cl)C(=O)c2ccncc2C1=O | -4%
Cc1cccc2cc(C(c3nnnn3CC3CCCO3)N3CCCC4(CCCCC4)C3)c(=O)[nH]c12 (stereo not drawn) | ?
COc1ccccc1-c1cncnc1NCCNC(C)=O | ?
CCC(C)(C)C(=O)O | 1%
O=C(Nc1cc(Cl)ccc1O)c1cc2n(n1)C(C(F)(F)F)CC(c1ccc3c(c1)OCO3)N2 (stereo not drawn) | -19%
Cc1ccc(C(=O)c2cc3c(cc2N)OCCO3)cc1 | 0%

Ordered by formula weight (ascending): some entries from above
SMILES | HSD17B inh
COc1ccccc1-c1cncnc1NCCNC(C)=O | ?
COc1cccc(-n2c(SCC#N)nnc2-c2cnccn2)c1 | -1%
CCCCC(=O)N=c1sc2cc(S(C)(=O)=O)ccc2n1C | -11%
CO/N=C(\C(=O)NC1C(=O)N2C(C(=O)OCOC(=O)C(C)(C)C)=C(/C=C\c3scnc3C)CSC12)c1csc(N)n1 (stereo not drawn) | -4%

Later entries.
SMILES | HSD17B inh
Cc1nn(-c2ccccc2)c(C)c1C(=O)OCC(=O)c1c(N)n(CC(C)C)c(=O)n(C)c1=O | -5%
COc1cccc(CSc2nnc(-c3ccc(F)cc3)o2)c1 | -1%
Cc1ccc(-n2ncc3c(=O)n(CC(=O)Nc4cccc(Cl)c4)cnc32)cc1C | ?
O=S(=O)(CCc1nnc(-c2ccccc2)o1)c1ccc2ccccc2c1 | 9%
